Screens as filed in PubChem.
VDR inhibitor: inhibitors of human vitamin D receptor; Potency, µM, inactives show max response, negative = inhibition, usual class: inhibitors; 0.93% of 400,000 active; P11473; VDR-SRC2-3 peptide fluorescence polarization, 2 h; active = well fitted inhibition curve with a large enough effect; inconclusive = small, poorly fitted or top-dose-only effect, or another doubt; inactive = no such curve, though single readings can be large or run the other way; also: series mostly up to about 120 µM
Target sequence (P11473 whole entry, looked up): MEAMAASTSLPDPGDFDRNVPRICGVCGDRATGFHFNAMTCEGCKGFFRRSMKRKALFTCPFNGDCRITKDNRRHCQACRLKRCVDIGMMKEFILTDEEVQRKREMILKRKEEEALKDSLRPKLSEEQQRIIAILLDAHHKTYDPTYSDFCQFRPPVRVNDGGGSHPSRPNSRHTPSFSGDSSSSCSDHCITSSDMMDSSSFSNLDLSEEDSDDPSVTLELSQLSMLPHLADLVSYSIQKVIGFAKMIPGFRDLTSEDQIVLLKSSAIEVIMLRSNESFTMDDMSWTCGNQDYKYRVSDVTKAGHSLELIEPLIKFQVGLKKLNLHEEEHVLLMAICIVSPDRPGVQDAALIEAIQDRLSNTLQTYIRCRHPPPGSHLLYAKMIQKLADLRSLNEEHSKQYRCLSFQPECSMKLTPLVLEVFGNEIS
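Fluorescence polarization assay measuring small-molecule disruption of VDR binding to the coregulator peptide SRC2-3. Compounds were pin-transferred (23 nl) into the reagent mix and incubated 2 h at room temperature before reading.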
* = called active by the depositor; ? = inconclusive; & = joins results of further samples. % is scaled to controls: 0 for no effect and ±100 for the full control effect; potency is read from the fitted curve at half-maximal effect.

SMILES: O=C(NCc1ccccc1)c1ccc2c(c1)C(=O)N(CC1CCCO1)C2=O (configuration not stated)
  VDR inhibitor = 2%

SMILES: Fc1ccc(N2CCN(c3nnnn3-c3ccccc3)CC2)cc1
  VDR inhibitor = 1%

SMILES: CCN1C/C(=C\c2cc(OC)c(OC)c(OC)c2)C2=NN(c3ccccc3)C(c3cc(OC)c(OC)c(OC)c3)C2C1 (configuration not stated)
  VDR inhibitor = ?

SMILES: CCOc1ccc2nc(COC(=O)c3ccncc3)c(C(=O)c3ccccc3)[n+]([O-])c2c1
  VDR inhibitor = -5%

SMILES: Cc1ccc(S(=O)(=O)C(CNC(=O)c2ccccc2F)c2cccs2)cc1 (configuration not stated)
  VDR inhibitor = 0%

SMILES: COc1ccc(S(=O)(=O)Cc2ccc(C(=O)N3CCN(c4cc(Cl)ccc4C)CC3)o2)cc1
  VDR inhibitor = -7%

SMILES: CCOC(=O)n1c(=O)n(Cc2ccc(OC)cc2)c2ccccc21
  VDR inhibitor = 3%

SMILES: Cc1ccc(OCCOCCN2CCN(C)CC2)c([N+](=O)[O-])c1
  VDR inhibitor = -16%

SMILES: Cc1ccc(N2C(=O)CC(Sc3cccs3)C2=O)cc1 (configuration not stated)
  VDR inhibitor = -18%

SMILES: CC1CCN(C(=O)Cn2cnc3c2c(=O)n(C)c(=O)n3C)c2ccccc2S1 (configuration not stated)
  VDR inhibitor = 1%

SMILES: CCN(CC)S(=O)(=O)c1ccc(N2CC(C(=O)NCc3ccc4c(c3)OCO4)CC2=O)cc1 (configuration not stated)
  VDR inhibitor = -23%

SMILES: CSc1ccc(CN(C)C(=O)c2cc3ccccc3o2)cc1
  VDR inhibitor = -4%

SMILES: O=C(COC(=O)/C=C/C(=O)OCC(=O)Nc1ccccc1F)Nc1ccccc1F
  VDR inhibitor = -21%

SMILES: CCn1ncc(C(=O)Nc2cc(C)on2)c1C
  VDR inhibitor = 8%

SMILES: NNC(=O)Cn1cnc2ccccc21
  VDR inhibitor = 3%

SMILES: COc1ccc(Cl)cc1NC(=O)CN1C(=O)CSc2ccc(S(=O)(=O)N3CCCC3)cc21
  VDR inhibitor = -4%

SMILES: Cc1ccc(Nc2ncnc3ccccc23)cc1
  VDR inhibitor = ?

SMILES: C=CCNc1nc(C(=O)OCC(=O)c2ccccc2)cs1
  VDR inhibitor = 24%

SMILES: CC1(C)CC(=O)c2cc(OCC(=O)NCCCN3CCN(c4ccc(F)cc4)CC3)ccc2O1
  VDR inhibitor = -3%

SMILES: COc1cccc(NC(=O)CN(C)C(=O)[C@@H]2CCCN2C(=O)c2cccs2)c1
  VDR inhibitor = -7%

SMILES: NC(=O)c1cc([N+](=O)[O-])ccc1NCc1cnccn1
  VDR inhibitor = -12%

SMILES: C=CCNc1sc(C(=O)C2CC2)c(N)c1C#N
  VDR inhibitor = 2%

SMILES: CCOC(=O)c1cnc2c(C(=O)OC)cccc2c1NCc1ccco1
  VDR inhibitor = 5%

SMILES: CCc1cccc(C)c1NC(=O)Cn1cc2c(n1)CCCCC2
  VDR inhibitor = 15%

SMILES: Cc1ccc(CNS(=O)(=O)c2ccc3c(c2)CCN3C(=O)CCCC(=O)O)cc1
  VDR inhibitor = -7%

SMILES: COc1ccc(OC(=O)CSc2nnc(-c3ccc(F)cc3)o2)cc1
  VDR inhibitor = 1%

SMILES: O=C(NNC(=O)c1ccc2ccccc2c1O)c1cccs1
  VDR inhibitor = 22%

SMILES: O=c1/c(=C\c2ccc(O)cc2)sc2n1C(c1ccccc1)C(c1ccccc1)=NN=2 (configuration not stated)
  VDR inhibitor = -6%

SMILES: CC(NCC(O)c1ccc([N+](=O)[O-])cc1)C12CC3CC(CC(C3)C1)C2 (configuration not stated)
  VDR inhibitor = 5%

SMILES: CCOC(=O)c1ccc(-n2c(N)c(C(=O)NCc3ccco3)sc2=S)cc1
  VDR inhibitor = ?

A second format for some results above:
VDR inhibitor | compound
-7% | COc1ccc(S(=O)(=O)Cc2ccc(C(=O)N3CCN(c4cc(Cl)ccc4C)CC3)o2)cc1
3% | CCOC(=O)n1c(=O)n(Cc2ccc(OC)cc2)c2ccccc21
-16% | Cc1ccc(OCCOCCN2CCN(C)CC2)c([N+](=O)[O-])c1
-18% | Cc1ccc(N2C(=O)CC(Sc3cccs3)C2=O)cc1 (configuration not stated)
1% | CC1CCN(C(=O)Cn2cnc3c2c(=O)n(C)c(=O)n3C)c2ccccc2S1 (configuration not stated)
-23% | CCN(CC)S(=O)(=O)c1ccc(N2CC(C(=O)NCc3ccc4c(c3)OCO4)CC2=O)cc1 (configuration not stated)
-4% | CSc1ccc(CN(C)C(=O)c2cc3ccccc3o2)cc1
-21% | O=C(COC(=O)/C=C/C(=O)OCC(=O)Nc1ccccc1F)Nc1ccccc1F
8% | CCn1ncc(C(=O)Nc2cc(C)on2)c1C
3% | NNC(=O)Cn1cnc2ccccc21
-4% | COc1ccc(Cl)cc1NC(=O)CN1C(=O)CSc2ccc(S(=O)(=O)N3CCCC3)cc21
? | Cc1ccc(Nc2ncnc3ccccc23)cc1
24% | C=CCNc1nc(C(=O)OCC(=O)c2ccccc2)cs1
-3% | CC1(C)CC(=O)c2cc(OCC(=O)NCCCN3CCN(c4ccc(F)cc4)CC3)ccc2O1
-7% | COc1cccc(NC(=O)CN(C)C(=O)[C@@H]2CCCN2C(=O)c2cccs2)c1
-12% | NC(=O)c1cc([N+](=O)[O-])ccc1NCc1cnccn1
2% | C=CCNc1sc(C(=O)C2CC2)c(N)c1C#N
5% | CCOC(=O)c1cnc2c(C(=O)OC)cccc2c1NCc1ccco1
15% | CCc1cccc(C)c1NC(=O)Cn1cc2c(n1)CCCCC2
-7% | Cc1ccc(CNS(=O)(=O)c2ccc3c(c2)CCN3C(=O)CCCC(=O)O)cc1
1% | COc1ccc(OC(=O)CSc2nnc(-c3ccc(F)cc3)o2)cc1
22% | O=C(NNC(=O)c1ccc2ccccc2c1O)c1cccs1

Going on with the list:
SMILES: COc1ccc(Nc2cc(=O)oc3ccccc23)cc1
  VDR inhibitor = 21%

SMILES: Cc1ccc(NC(=O)C2CCCN(S(=O)(=O)c3ccc4c(c3)CCCC(=O)N4)C2)cc1N(C)C (configuration not stated)
  VDR inhibitor = 13%

SMILES: O=C(O)c1cccc(-n2c(/C=C/c3ccc([N+](=O)[O-])cc3)nc3ccccc3c2=O)c1
  VDR inhibitor = -20%

SMILES: Cc1ccc(Nc2nc(N)nc(CN3CCCCCC3)n2)c(C)c1
  VDR inhibitor = -4%

SMILES: COc1ccccc1/C=C1/C(=O)ON=C1C
  VDR inhibitor = 50µM*

SMILES: CCOC(=O)c1c(SCC(=O)Nc2cccc(C)c2C)nc(=O)[nH]c1C
  VDR inhibitor = 16%

SMILES: CCOC(=O)c1c(C)n(-c2ccccc2)c2ccc(OC(=O)c3ccccc3Cl)cc12
  VDR inhibitor = 8%

SMILES: Cc1ccccc1/C=c1\s/c(=C\C(=O)C(C)(C)C)[nH]c1=O
  VDR inhibitor = 10%

SMILES: Cc1ccccc1OCCOC(=O)c1nc2nccc(C)n2n1
  VDR inhibitor = 6%

SMILES: CCCc1c(C(=O)NNc2cccc(Cl)c2)cnn1-c1ccccc1
  VDR inhibitor = ?

SMILES: Nc1ccc(Nc2nc3ccccc3[nH]2)cc1
  VDR inhibitor = -6%

SMILES: Cc1nn(-c2ccc(N3CCOCC3)nn2)c(C)c1CCC(=O)N1CCN(C)CC1
  VDR inhibitor = -11%

SMILES: CCCC1=C(C(=O)OCC)C(c2cc(Cl)cc(OC)c2OCC(=O)OCC)NC(=O)N1 (configuration not stated)
  VDR inhibitor = -8%

SMILES: CCN(CCn1cccn1)C(=O)C1CCC(=O)N(CCN2CCOCC2)C1 (configuration not stated)
  VDR inhibitor = -13%

SMILES: CCCC(=O)Nc1cc(C)c(NC(=O)c2cccs2)cn1
  VDR inhibitor = 24%

New compounds follow
smiles	VDR inhibitor
Cn1nc(C(F)(F)F)c(/C=N/OC(=O)c2ccccc2)c1SCc1ccc(Cl)cc1	-3%
CN(C)CCCNC(=O)C[C@H]1C[C@H](C(=O)N2CCOCC2)[C@@]2(CCC3CCCC3)c3[nH]c4cc(-c5ccco5)ccc4c3CCN2C1=O	6%
Cc1nn(Cc2c(Cl)cccc2Cl)c(C)c1NC(=O)CCCn1nc([N+](=O)[O-])c(Cl)c1C	7%
O=Nc1onc(-c2ccc([N+](=O)[O-])cc2)c1NO	?
CN(C)CCCN(C(=O)c1ccc(S(=O)(=O)N(C)C2CCCCC2)cc1)c1nc2ccc(Br)cc2s1	2%
O=C(NCCN1C(=O)S/C(=C/c2ccccc2)C1=O)C1CCCN1C(=O)c1cccs1 (configuration not stated)	3%
Cc1ccccc1-c1nc(CS(=O)CC(=O)NCCc2ccc(Cl)cc2)c(C)o1 (configuration not stated)	-14%&-24%
OCCNc1nc(Nc2ccccc2OC(F)(F)F)nc(N2CCCC2)n1	-4%
CCC(=O)c1ccc(OCC(=O)Nc2cc(S(=O)(=O)N3CCCCC3)ccc2N2CCN(CC)CC2)cc1	-7%
O=C1CCCc2nc(N3CCN(Cc4ccccc4)CC3)ncc21	-4%
Cc1ccc(C(=O)N/C(=C\c2cn(S(=O)(=O)N(C)C)c3ccccc23)C(=O)NCCN2CCOCC2)cc1	-10%
CCN1C(=O)[C@H]2[C@@H](c3ccc(-c4cccc(Cl)c4)c(OC)c3)N[C@@](Cc3ccccc3)(C(=O)OC)[C@H]2C1=O	-13%

More records follow:
smiles	VDR inhibitor
Cc1ccc(S(=O)(=O)NC(=O)C2CCCCC2)cc1	-9%
CN(CC(=O)Nc1c(Cl)cccc1Cl)C(=O)CNC(=O)C1CCCCC1	8%
CCN(Cc1ccncc1)Cc1nc(Cc2ccccc2Cl)no1	-18%
O=C1CSC(c2cccnc2)N1Cc1ccc(Cl)cc1 (configuration not stated)	-10%
O=C(Nc1ccc(S(=O)(=O)N2CCCCC2)cc1)c1ccc(=O)[nH]c1	5%
CC(C(=O)Nc1ccc(Cl)cc1Cl)N1C(=O)NC2(CCCCCCC2)C1=O (configuration not stated)	10%
O=C(NC(=S)NCc1ccncc1)c1ccccc1	3%
O=C(O)c1cccc(N2C(=O)C3CC=C(Cl)CC3C2=O)c1 (configuration not stated)	?
Cc1csc(NC(=O)CSc2nnc(-c3ccncc3)o2)n1	6%
COc1cc(NC(N)=S)c(OC)cc1Cl	2%
Cc1c(C(=O)NCCCN2CCCC2=O)oc2c(Cl)cccc12	4%
CN(CC1CCCO1)S(=O)(=O)c1ccc(C(=O)Nc2nccs2)cc1 (configuration not stated)	6%

2 entries drawn at random from the list so far, as already listed:
smiles	VDR inhibitor
Cc1ccc(S(=O)(=O)NC(=O)C2CCCCC2)cc1	-9%
CN(CC1CCCO1)S(=O)(=O)c1ccc(C(=O)Nc2nccs2)cc1 (configuration not stated)	6%

Later entries:
smiles	VDR inhibitor
CCn1c(C)nc2cc(OC)ccc21	16%
O=C(CCNC(=O)c1ccco1)NCc1ccc(C(=O)O)cc1	-8%
COc1cccc(CNS(=O)(=O)c2c(C(=O)N3CCCC3)c(C)n(C)c2C)c1	-13%
Cc1ccccc1C(=O)O/N=C/c1c(N2CCOCC2)n(C)c2ccccc12	-27%
Cc1cccc(/C=N/NC(=O)Cn2nccc2C)n1	11%
Cc1c(Br)c([N+](=O)[O-])nn1CC(=O)N(C)Cc1ccccc1	21%
CNS(=O)(=O)c1ccc(NS(=O)(=O)c2ccccc2F)cc1	-1%
COc1ccc(C(=O)N(C)Cc2nc3ccccc3c(=O)[nH]2)cc1S(=O)(=O)N1CCCC1	-12%
COC1OC2COC(c3ccccc3)OC2C(O)C1NC(=O)c1ccccc1 (configuration not stated)	-2%
CC(C)(C)c1cnnn1-c1ccc(C=O)cc1	-2%
CCOC(=O)N1CCC(NC(=O)c2ccc3c(c2)N(Cc2ccc(Cl)cc2)C(=O)c2ccccc2S3(=O)=O)CC1	3%
O=C(COC(=O)c1ccc(O)cc1O)NC12CC3CC(CC(C3)C1)C2	6%

The list goes on:
smiles	VDR inhibitor
Cc1csc(SCC(=O)Nc2ccccn2)n1	12%
FC(F)(F)c1nnc2n1N=C(c1cccs1)CS2	-9%
Cc1ccc(-c2c[n+]3c(n2-c2ccccc2)SCC3)cc1	1%
CC(C1CCCC(=O)C1)[N+](=O)[O-] (configuration not stated)	9%
CC(C)(C)c1ccc(C(=O)N2CCN(C(=O)c3cccs3)CC2)cc1	-2%
Cc1ccc(NC(=O)Cn2ccnc2)cc1C	7%
CCCC(=NCCc1c(C)[nH]c2ccccc12)C1=C(O)CC(c2ccccc2)CC1=O (configuration not stated)	-9%
COc1ccc(-n2nnc3c(=O)n(CC(=O)N4CCC(C)CC4)cnc32)cc1	-20%
O=C(O)CC/C(=N\NC(=O)CNC(=O)c1cccc(Cl)c1)c1ccccc1	-17%
c1ccc(N2CCN(c3nnnn3-c3ccccc3)CC2)cc1	2%
CCOC(=O)N1CCC(NC(=O)C2CCC(Cn3c(=O)[nH]c4ccccc4c3=O)CC2)CC1 (configuration not stated)	-6%
CCC1CCCCN1C(=S)Nc1ccc(OC(F)F)cc1 (configuration not stated)	-13%

Later entries.
smiles	VDR inhibitor
O=C(NNC(=O)c1ccccc1Br)c1cnccn1	-6%
COCCn1c(SCC(=O)N(C)c2c(N)n(Cc3ccccc3)c(=O)[nH]c2=O)nnc1-c1cccc(C)c1	1%
Cc1ccc(C)n1-c1ccc(N(C)C)cc1	?
CN1OC[C@@H]2CN(C(=O)CCc3ccccc3)[C@H](c3cccc(-c4ccc(C#N)cc4)c3)C[C@@H]21	-4%
O=C(CC1C(=O)NCCN1CC1CCCCC1)NCc1ccc(F)cc1F (configuration not stated)	-16%
CC(=O)S[C@H]1CC2=CC(=O)CC[C@@]2(C)[C@H]2CC[C@@]3(C)[C@H](CC[C@]34CCC(=O)O4)[C@@H]12	-9%
CC(=O)Nc1nnc(CSCc2ccc(F)cc2)s1	?
CCCCCCn1c(O)c(/C=C2\C=NN=C2c2ccccc2)sc1=S	1%
COc1cc(C(=O)Oc2cccc(/C=N/NC(=O)c3cc(C)[nH]n3)c2)cc(OC)c1OC	18%

Only part of the results is shown (hit frequency here may not be typical).
